Source: PubChem BioAssay (Broad Institute)
UUG fidelity – yeast start codon fidelity modulation; S. cerevisiae UUG-firefly luciferase reporter, luminescence/redox ratio; AID 602363; 350,000 compounds, 0.13% hits; activity score, % at 18.7 µM;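 active means replicate mean at a twofold rise or more, about +100% in these data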;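 further: firefly luciferase made from a UUG start codon reports start codon fidelity; reporter light over untreated wells divided by growth signal over untreated wells; some hits fall short of that in this replicate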
HIV Env fusion – inhibitors of HIV Env-mediated cell fusion. HeLa-JRFL Env/CEM21 cell fusion, luciferase. inhibition, % at 12.3 µM. 360,000 compounds, 1.1% hits;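 active means mean replicate inhibition score of at least 50 and every replicate individually at or above 50; inconclusive means only one of the two criteria met; inactive means mean below 50 and not all replicates reaching 50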;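 further: 0% = plate neutral controls and 100% = maraviroc near 300 nM; one replicate is shown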
Numbers without * were called inactive; ? = inconclusive; [ ] = remark or other dose. A portion of the library; rates above refer to the full screens.

| molecule | UUG fidelity | HIV Env fusion |
| --- | --- | --- |
| Cc1ccc(S(=O)(=O)N[C@@H]2CC[C@H](CC(=O)N3CCC(Cc4ccccc4)CC3)O[C@@H]2CO)cc1 | 8 | ? |
| Cc1noc(C)c1S(=O)(=O)Nc1cccc2c1O[C@@H](CN(C)Cc1ccc(Oc3ccccc3)cc1)[C@@H](C)CN([C@@H](C)CO)C2=O | -5 | -6[16.7 µM] |
| C[C@@H]1CN([C@H](C)CO)C(=O)c2cc(NC(=O)Nc3ccc(F)cc3)ccc2O[C@@H](C)CCCCO[C@H]1CN(C)S(=O)(=O)c1cn(C)cn1 | 8 | 22[16.7 µM] |
| CCCC(=O)Nc1ccc2c(c1)C(=O)N(C)[C@@H]1CC[C@@H](CC(=O)NCCN3CCCCC3)O[C@H]1CO2 | -8 | -1[16.7 µM] |
| C[C@@H]1CN([C@H](C)CO)C(=O)c2cc(NC(=O)Nc3cccc4ccccc34)ccc2O[C@H]1CN(C)Cc1ccc(Oc2ccccc2)cc1 | -10 | -2[16.7 µM] |
| CCCNC(=O)Cc1ccc(N2C(=O)CSC2c2ccccc2)cc1 (stereo not given) | -11 | -11[16.7 µM] |
| Cc1ccc(S(=O)(=O)N(C)C[C@H]2Oc3c(NS(=O)(=O)c4c(C)noc4C)cccc3C(=O)N([C@@H](C)CO)C[C@H]2C)cc1 | 18 | -1[16.7 µM] |
| CN(C)C(=O)C[C@H]1C[C@@H]2c3cc(NC(=O)Nc4ccccc4)ccc3O[C@@H]2[C@@H](CO)O1 | -7 | 0[16.7 µM] |
| O=C(C[C@H]1C=C[C@H](NC(=O)NC2CCCCC2)[C@H](CO)O1)NCc1ccc(Cl)cc1 | -32 | 8[16.7 µM] |
| CO[C@H]1CN(C)C(=O)c2cc(NC(C)=O)ccc2OC[C@H](C)N(C(=O)c2ccccc2)C[C@H]1C | -4 | -11[16.7 µM] |
| COCc1cn(CC[C@@H]2CC[C@H](NC(=O)Nc3ccc(F)cc3)[C@@H](CO)O2)nn1 | -10 | -7[16.7 µM] |
| COc1ccccc1-c1ccc([C@H]2[C@@H](CO)N(C(=O)C3CCCCC3)[C@H]2C#N)cc1 | -7 | 9[16.7 µM] |
| C[C@H](CO)N1C[C@H](C)[C@@H](CN(C)CC2CCCCC2)Oc2c(NC(=O)NC3CCCCC3)cccc2C1=O | -1 | 22[16.7 µM] |
| C[C@@H]1CN([C@@H](C)CO)C(=O)c2cc(NS(=O)(=O)c3ccc(F)cc3)ccc2O[C@H]1CN(C)Cc1ccc(Cl)c(Cl)c1 | 25 | -13[16.7 µM] |
| C[C@@H]1CN([C@H](C)CO)C(=O)c2cccc(NC(=O)c3ccc(-c4nccs4)cc3)c2O[C@H]1CN(C)S(=O)(=O)c1ccccc1 | 19 | -142[16.7 µM] |
| CCCN(C)C[C@@H]1Oc2cc(-c3ccc(OC)cc3)ccc2S(=O)(=O)N([C@H](C)CO)C[C@@H]1C | 1 | 4[16.7 µM] |
| COc1cccc(-c2cnc3c(c2)C(=O)N([C@@H](C)CO)C[C@@H](C)[C@H](CN(C)Cc2ccncc2)O3)c1 | -8 | 3[16.7 µM] |
| C[C@@H]1CN([C@H](C)CO)C(=O)c2cc(NC(=O)Cn3cnnn3)ccc2O[C@@H]1CN(C)C(=O)Nc1ccccc1 | 14 | -9[16.7 µM] |
| CC(C)NC(=O)N(C)C[C@@H]1OCCCC[C@@H](C)Oc2ccc(NS(=O)(=O)c3cccs3)cc2C(=O)N([C@H](C)CO)C[C@H]1C | -17 | -32[16.7 µM] |
| COc1ccc(CN(C)C[C@H]2OCCCC[C@H](C)Oc3ccc(NS(=O)(=O)c4ccc(Cl)cc4)cc3C(=O)N([C@@H](C)CO)C[C@@H]2C)cc1 | 23 | 21[16.7 µM] |
| C[C@@H]1CN([C@H](C)CO)C(=O)c2cccc(NC(=O)c3nc4ccccc4s3)c2O[C@@H]1CN(C)S(=O)(=O)c1cccs1 | -3 | 8[16.7 µM] |
| C[C@@H]1CCCCO[C@H](CN(C)C(=O)CCC(F)(F)F)[C@@H](C)CN([C@H](C)CO)C(=O)c2cc(NC(=O)c3ccccc3)ccc2O1 | 2 | -14[16.7 µM] |
| COc1ccc(S(=O)(=O)N(C)C[C@@H]2Oc3c(NC(=O)Nc4ccc(C(F)(F)F)cc4)cccc3C(=O)N([C@H](C)CO)C[C@@H]2C)cc1 | -3 | 9[16.7 µM] |
| CCC(=O)Nc1ccc2c(c1)C(=O)N(C)[C@H]1CC[C@@H](CC(=O)N3CCc4ccccc4C3)O[C@@H]1CO2 | -3 | -6[16.7 µM] |
| C[C@@H]1CN([C@H](C)CO)C(=O)Cc2cc(NS(=O)(=O)c3ccccc3)ccc2O[C@H]1CN(C)Cc1ccc(Oc2ccccc2)cc1 | -4 | 20[16.7 µM] |
| C[C@H]1CN([C@@H](C)CO)C(=O)c2cccc(NC(=O)C3CCOCC3)c2O[C@H]1CN(C)Cc1ccc(Oc2ccccc2)cc1 | -3 | 4[16.7 µM] |
| Cc1noc(C)c1S(=O)(=O)Nc1ccc2c(c1)C(=O)N([C@@H](C)CO)C[C@H](C)[C@@H](CN(C)S(=O)(=O)c1cn(C)cn1)OCCCC[C@H](C)O2 | 21 | 6[16.7 µM] |
| C[C@H]1CCCCO[C@H](CN(C)C(=O)CCC(F)(F)F)[C@@H](C)CN([C@@H](C)CO)C(=O)c2cc(NS(C)(=O)=O)ccc2O1 | 21 | 37[16.7 µM] |
| COc1ccc(NC(=O)Nc2ccc3c(c2)C(=O)N([C@H](C)CO)C[C@H](C)[C@H](CN(C)C(=O)Cc2ccccc2)OCCCC[C@@H](C)O3)cc1 | 2 | 1[16.7 µM] |
| COc1cc(OC)c2c(-c3cccc(-c4ccc(OC)c(OC)c4)c3)cc(=O)oc2c1 | -14 | -57 |
| CC(C)NC(=O)N(C)C[C@@H]1Oc2ncc(C#Cc3ccccc3F)cc2C(=O)N([C@@H](C)CO)C[C@@H]1C | -2 | 15[16.7 µM] |
| COC(=O)C[C@@H]1C[C@H]2c3cc(N(C)C)ccc3O[C@H]2[C@@H](CO)O1 | 12 | -3[16.7 µM] |
| C[C@H]1CN([C@@H](C)CO)C(=O)c2cc(NC(=O)Nc3ccccc3)ccc2O[C@H]1CN(C)Cc1ccc(-c2ccccc2)cc1 | 10 | -5[16.7 µM] |
| CN(C)CC(=O)Nc1ccc2c(c1)[C@@H]1C[C@H](CC(=O)N3CCOCC3)O[C@@H](CO)[C@@H]1O2 | -12 | 9[16.7 µM] |
| C[C@H](CO)N1C[C@H](C)[C@H](CN(C)Cc2ccc(Cl)c(Cl)c2)Oc2ccc(NS(=O)(=O)c3cn(C)cn3)cc2CC1=O | 4 | 2[16.7 µM] |
| COc1ccc(S(=O)(=O)N(C)C[C@H]2OCCCC[C@H](C)Oc3ccc(N(C)C)cc3C(=O)N([C@H](C)CO)C[C@H]2C)cc1 | 15 | 16[16.7 µM] |
| COc1ccc(S(=O)(=O)N(C)C[C@H]2Oc3cc(C#CC4CC4)ccc3S(=O)(=O)N([C@@H](C)CO)C[C@@H]2C)cc1 | -15 | -21[16.7 µM] |
| C[C@@H]1CN([C@@H](C)CO)C(=O)CCCn2cc(nn2)CO[C@H]1CN(C)C(=O)C1CC1 | -5 | 10 |
| COc1ccc(S(=O)(=O)N(C)C[C@H]2OCCCC[C@@H](C)Oc3ccc(NS(=O)(=O)c4ccccc4)cc3C(=O)N([C@@H](C)CO)C[C@@H]2C)cc1 | 2 | -48[16.7 µM] |
| C[C@H](CO)N1C[C@H](C)[C@H](CN(C)Cc2ccccn2)Oc2ncc(C#CC3CC3)cc2C1=O | -15 | -9[16.7 µM] |
| C[C@H](CO)N1C[C@H](C)[C@@H](CN(C)Cc2ccccc2)Oc2ccc(NC(=O)NC3CCCCC3)cc2C1=O | -3 | 11[16.7 µM] |
| C[C@@H]1CN([C@H](C)CO)C(=O)c2cc(-c3ccccc3F)cnc2O[C@H]1CN(C)C(=O)c1ccccn1 | -1 | -1[16.7 µM] |
| Cc1ccc(S(=O)(=O)N[C@H]2CC[C@@H](CCNC(=O)c3ccc4c(c3)OCO4)O[C@H]2CO)cc1 | 9 | -12[16.7 µM] |
| CCC(=O)N1C[C@@H](C)[C@@H](OC)CN(C)C(=O)c2ccc(NS(C)(=O)=O)cc2OC[C@@H]1C | 4 | -4[16.7 µM] |
| CC(C)CC#Cc1ccc2c(c1)O[C@H](CN(C)Cc1ccncc1)[C@@H](C)CN([C@@H](C)CO)S2(=O)=O | -7 | 38[16.7 µM] |
| CCNC(=O)C[C@H]1C=C[C@@H](NC(=O)C2CC2)[C@@H](CO)O1 | -16 | -8[16.7 µM] |
| Cc1noc(C)c1NC(=O)N(C)C[C@@H]1OCCCC[C@@H](C)Oc2ccc(NC(=O)Nc3ccccc3)cc2C(=O)N([C@H](C)CO)C[C@@H]1C | 0 | 19[16.7 µM] |
| C[C@@H]1CN([C@H](C)CO)C(=O)c2cc(NC(=O)c3ccncc3)ccc2O[C@@H](C)CCCCO[C@H]1CN(C)S(=O)(=O)c1cccs1 | -7 | -34[16.7 µM] |

Record cards, as listed above. Order of values: UUG fidelity | HIV Env fusion
CCNC(=O)C[C@H]1C=C[C@@H](NC(=O)C2CC2)[C@@H](CO)O1 as listed: -16 | -8[16.7 µM]
C[C@@H]1CN([C@H](C)CO)C(=O)c2cc(NC(=O)c3ccncc3)ccc2O[C@@H](C)CCCCO[C@H]1CN(C)S(=O)(=O)c1cccs1 as listed: -7 | -34[16.7 µM]
C[C@H](CO)N1C[C@H](C)[C@H](CN(C)Cc2ccccn2)Oc2ncc(C#CC3CC3)cc2C1=O as listed: -15 | -9[16.7 µM]
C[C@H](CO)N1C[C@H](C)[C@@H](CN(C)Cc2ccccc2)Oc2ccc(NC(=O)NC3CCCCC3)cc2C1=O as listed: -3 | 11[16.7 µM]
C[C@@H]1CN([C@@H](C)CO)C(=O)CCCn2cc(nn2)CO[C@H]1CN(C)C(=O)C1CC1 as listed: -5 | 10

Other structures
| molecule | UUG fidelity | HIV Env fusion |
| --- | --- | --- |
| COc1ccccc1-c1cn(CC[C@@H]2CC[C@@H](NC(=O)NC(C)C)[C@H](CO)O2)nn1 | -4 | 0[16.7 µM] |
| C/C=C/c1cnc2c(c1)C(=O)N([C@H](C)CO)C[C@@H](C)[C@H](CN(C)S(=O)(=O)c1cccs1)O2 | -9 | 1[16.7 µM] |
| CCCC(=O)Nc1ccc2c(c1)C(=O)N(C)[C@@H]1CC[C@H](CC(=O)Nc3ccccc3)O[C@H]1CO2 | 16 | 8[16.7 µM] |
| C[C@@H]1CN([C@@H](C)CO)S(=O)(=O)c2ccc(C3=CCCCC3)cc2O[C@H]1CN(C)C(=O)c1ccc(F)cc1 | 5 | -7[16.7 µM] |
| C[C@H]1CN([C@@H](C)CO)C(=O)c2cc(NS(C)(=O)=O)ccc2O[C@H]1CN(C)Cc1ccc(Oc2ccccc2)cc1 | 20 | 8[16.7 µM] |
| CC(C)NC(=O)Nc1ccc2c(c1)CC(=O)N([C@@H](C)CO)C[C@@H](C)[C@@H](CN(C)S(=O)(=O)c1cccs1)O2 | 50 | 11[16.7 µM] |
| C[C@H](CO)N1C[C@H](C)[C@H](CN(C)CC2CCCC2)Oc2ncc(Br)cc2C1=O | -5 | 18[16.7 µM] |
| C[C@@H]1CN([C@H](C)CO)C(=O)c2cc(-c3ccc(C#N)cc3)cnc2O[C@@H]1CN(C)Cc1ccncc1 | -3 | -4[16.7 µM] |
| Cc1ccccc1CN(C)C[C@H]1OCc2cn(nn2)CCCC(=O)N([C@H](C)CO)C[C@@H]1C | 14 | 3[16.7 µM] |
| CC(C)NC(=O)N(C)C[C@H]1Oc2ncc(-c3ccc(C(=O)N(C)C)cc3)cc2C(=O)N([C@@H](C)CO)C[C@H]1C | 0 | -44[16.7 µM] |
| C[C@@H]1CCCCO[C@H](CN(C)C(=O)Nc2ccc(C(F)(F)F)cc2)[C@@H](C)CN([C@@H](C)CO)C(=O)c2cc(NS(=O)(=O)c3ccc(Cl)cc3)ccc2O1 | 16 | ? |
| O=C(C[C@@H]1C[C@@H]2c3cc(NC(=O)NC4CCCC4)ccc3O[C@@H]2[C@H](CO)O1)NCC(F)(F)F | 3 | 14[16.7 µM] |
| Cc1ccc(S(=O)(=O)Nc2ccc3c(c2)C(=O)N([C@@H](C)CO)C[C@H](C)[C@H](CN(C)Cc2ccc4c(c2)OCO4)OCCCC[C@@H](C)O3)cc1 | 24 | -24[16.7 µM] |
| Cc1noc(C)c1S(=O)(=O)Nc1ccc2c(c1)C(=O)N([C@H](C)CO)C[C@@H](C)[C@@H](CN(C)C(=O)Cc1ccccc1)OCCCC[C@H](C)O2 | 13 | -58[16.7 µM] |
| CO[C@H]1CN(C)C(=O)c2ccc(NC(=O)c3ccc(F)cc3)cc2OC[C@@H](C)NC[C@@H]1C | -6 | -3[16.7 µM] |
| CCCN(C)C[C@H]1Oc2ncc(-c3ccncc3)cc2C(=O)N([C@@H](C)CO)C[C@@H]1C | -7 | 0[16.7 µM] |
| Cc1ccc(S(=O)(=O)N(C)C[C@H]2OCCCC[C@@H](C)Oc3ccc(NC(=O)Nc4ccc5c(c4)OCO5)cc3C(=O)N([C@@H](C)CO)C[C@@H]2C)cc1 | -6 | -10[16.7 µM] |
| CC(C)C(=O)Nc1ccc2c(c1)C(=O)N(C)[C@@H]1CC[C@H](CC(=O)N[C@@H](C)c3ccccc3)O[C@H]1CO2 | 10 | 10[16.7 µM] |
| Cc1ccc(S(=O)(=O)Nc2ccc3c(c2)C(=O)N([C@@H](C)CO)C[C@H](C)[C@H](CN(C)Cc2ccc(C(=O)O)cc2)OCCCC[C@@H](C)O3)cc1 | 12 | 19[16.7 µM] |
| C[C@@H]1CN([C@@H](C)CO)C(=O)c2cccc(NC(=O)C3CC3)c2O[C@H]1CN(C)Cc1ccc(C(=O)Nc2ccccc2N)cc1 | 4 | 32[16.7 µM] |
| COCC#Cc1cnc2c(c1)C(=O)N([C@@H](C)CO)C[C@H](C)[C@H](CN(C)C(=O)Nc1ccc(OC)cc1)O2 | 7 | -13[16.7 µM] |
